# Mtb H37Rv: M. tuberculosis H37Rv growth inhibitors, H37Rv strain (AID 1626) | one-dose inhibition, % at 10 µM; IC50 in µM for titrated hits | M. tuberculosis H37Rv growth inhibition; higher % means a stronger effect | actives 0.95% (n = 220,000);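 active means confirmed in a dose series; inconclusive means inhibition above 80% but not taken into the dose series; inactive means below 80% or under 30% at every dose of the series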;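 further: bacteria incubated seven days before Alamar blue readout; 0% = bacteria only wells and 100% = bacteria with antibiotic wells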
# Arbovirus anti: antivirals against arbovirus infection; arbovirus infection cell-based antiviral screen; inhibition, % at 10 µM; actives 0.37% (n = 200,000); AID 1251;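 active means inhibition from about 30%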;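 further: bluetongue infection of BSR cells; cell survival read as ATP light after 72 h; 0% = infected wells without compound and 100% = uninfected wells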
# RecA splice inh: inhibitors of M. tuberculosis RecA intein splicing; P9WHJ3; cell-free RecA intein splicing, fluorescence; AID 2221; inhibition, %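 (about 9 µM by stock and volumes)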; actives 0.75% (n = 290,000); in the data active means inhibition above about 30%; inconclusive means no clear call, values can overlap the other calls;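 further: 0% = vehicle wells and 100% = reference inhibitor control wells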
# Target sequence (P9WHJ3 whole entry, looked up, canonical isoform): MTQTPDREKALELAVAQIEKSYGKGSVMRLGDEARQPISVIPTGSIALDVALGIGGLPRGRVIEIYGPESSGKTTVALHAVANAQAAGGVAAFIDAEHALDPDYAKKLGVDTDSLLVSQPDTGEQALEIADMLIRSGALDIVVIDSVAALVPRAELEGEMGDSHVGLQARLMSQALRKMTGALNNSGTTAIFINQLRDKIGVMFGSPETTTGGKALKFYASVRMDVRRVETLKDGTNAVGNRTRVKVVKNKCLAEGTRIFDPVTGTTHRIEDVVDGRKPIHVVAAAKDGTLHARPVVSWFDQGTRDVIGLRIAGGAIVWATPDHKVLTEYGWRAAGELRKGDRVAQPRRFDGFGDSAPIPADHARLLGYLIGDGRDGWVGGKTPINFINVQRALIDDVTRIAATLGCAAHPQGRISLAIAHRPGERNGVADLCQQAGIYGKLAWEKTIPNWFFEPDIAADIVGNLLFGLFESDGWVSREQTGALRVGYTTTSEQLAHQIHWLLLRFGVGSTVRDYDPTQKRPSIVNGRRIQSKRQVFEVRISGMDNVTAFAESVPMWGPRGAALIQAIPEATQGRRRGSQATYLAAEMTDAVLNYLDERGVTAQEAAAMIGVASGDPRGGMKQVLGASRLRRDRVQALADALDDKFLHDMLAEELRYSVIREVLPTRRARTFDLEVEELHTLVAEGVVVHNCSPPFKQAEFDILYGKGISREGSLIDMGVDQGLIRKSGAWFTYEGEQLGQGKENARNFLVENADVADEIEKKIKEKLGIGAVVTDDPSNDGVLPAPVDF
# YopH PTP inh: blocks Yersinia enterocolitica YopH tyrosine phosphatase; fluorescence Ex485/Em525; AID 898; inhibition, %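 (about 10 µM by stock and volumes)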; actives 0.16% (n = 140,000);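 active means inhibition of 50% or more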;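 further: controls were vehicle for no effect and minimum signal wells for full effect; inactives centre near -20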
# Mtb bLac sens: beta-lactam sensitization of Mtb H37Rv; M. tuberculosis H37Rv growth with meropenem, percent inhibition; hits of this screen are not shown here; inhibition, % at 25 µM; actives 0.27% (n = 330,000); AID 434955;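 active means about 74% or more and at least 40 points above the plate without the antibiotic, then above 30% in a dose series; inconclusive means first-round hits that could not be retested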;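 further: growth measured after seven days incubation then overnight dye step; 0% = bacteria only wells and 100% = bacteria with antibiotic; twin plates without the antibiotic show which effects depend on it; some results filed as inactive read as strong as hits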
# Arbovirus anti repeat: recorded beside Arbovirus anti, whose call it bears; inhibition, %; measured here: 10K subset replicate screen; many hits read low in the repeat;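 first of two repeat runs on a subset; 0% = infected and 100% = uninfected wells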
# The depositor's hits bear a star; ? = inconclusive; . = no result given; & = joins results of further samples. Only part of the results is shown. The share of hits here may be higher or lower than overall.
SMILES,Mtb H37Rv,Arbovirus anti,RecA splice inh,YopH PTP inh,Mtb bLac sens,others
C(=N\N1CCN(Cc2ccccc2)CC1)/c1cccnc1,5%,0,-2.3,-54,3,
O=C(O)CN1C(=O)/C(=C\c2cc(Br)ccc2OCc2ccccc2Cl)SC1=S,.,.,23,.,1,
CN1C(=O)CC(C(=O)Nc2ccc(F)cc2)SC1=Nc1ccc2c(c1)OCO2 (stereo not drawn),3%,-6,0.3,-17,9,
O=C(C[n+]1ccccc1)NNc1ccccc1,.,.,-3.8,.,98,
Cc1nnc(N/N=C/c2cc([N+](=O)[O-])c(N3CCC(C)CC3)cc2N2CCC(C)CC2)n1N,1%,-32,21,-17,97,
CC(C)OC(=O)c1c(NC(=O)C2CC=CCC2C(=O)O)sc2c1CCCCC2 (stereo not drawn),.,.,0.9,.,-15,
O=C1NC2(CCCCC2)C(=O)N1CCS(=O)(=O)Oc1ccc(Br)cc1,5%,-2,-1.2,.,-3,
C=CCNC(=O)C(=O)NCC(c1ccc2c(c1)OCO2)N1CCN(c2ccc(F)cc2)CC1 (stereo not drawn),.,.,4.8,.,-3,
CN1[C@@H](CC(=O)c2ccccc2)CCC[C@H]1C[C@H](O)c1ccccc1,0%,6&3,-0.6,-32,-4,
Oc1cccc(C=NCc2ccccc2)c1,2%,23,-1.9,-27,10,
O=C(O)CC1(CC(=O)Nc2ccccc2Br)CCCC1,.,.,0.2,.,47,
Cn1ccnc1C(=O)c1cc(=O)c2ccccc2o1,-2%,5,-0.8,-53,12,
CCCCc1cc(=O)oc2cc(OCC(=O)N3CCC(C(=O)O)(c4ccccc4)CC3)ccc12,.,.,4.7,.,1,
O=C(CSc1nc2ccccc2c(=O)n1-c1ccccc1)NC(=O)CN1CCCC1=O,-2%,6,0.6,.,2,
Cc1cccc(N2CCN(C(=O)c3cc4n(n3)C(C(F)(F)F)CC(c3ccco3)N4)CC2)c1C (stereo not drawn),60%,-25,-2.0,-25,92,
COc1cc(/C=N/Nc2ccc(S(N)(=O)=O)cc2[N+](=O)[O-])cc(OC)c1O,-11%,.,-1.8,.,-8,
N#CC(C#N)=c1ccc2c(c1)NC1(CCCCC1)N=2,?,1,-49,92*,101,
CCOC(=O)CNC(=O)c1nn(-c2cccc(OC)c2)c(=O)c2ccccc12,4%,-2,.,-28,38,
Cc1cccc(-n2ncc3c2CCCC3NC(=O)C2=CC(=O)CC(C)(C)O2)c1C (stereo not drawn),.,.,3.5,.,?,
CCOC(=O)c1nn(-c2ccccc2C)c(=O)c(C#N)c1C,-6%,2,19,-2,-1,

# The final 2 compounds of the part above lead into the next:
SMILES,Mtb H37Rv,Arbovirus anti,RecA splice inh,YopH PTP inh,Mtb bLac sens,others
Cc1cccc(-n2ncc3c2CCCC3NC(=O)C2=CC(=O)CC(C)(C)O2)c1C (stereo not drawn),.,.,3.5,.,?,
CCOC(=O)c1nn(-c2ccccc2C)c(=O)c(C#N)c1C,-6%,2,19,-2,-1,
Cn1nccc1NC(=O)NC(=O)c1c(Cl)cccc1Cl,1%,.,0.2,.,-4,
CCOc1ccc(CN2CCN(C(=O)c3ccco3)CC2)cc1,.,.,-2.0,.,-3,
Cc1ccc(S(=O)Cc2ccc(C(=O)N3CCN(C4CCCCC4)CC3)o2)cc1 (stereo not drawn),.,.,1.7,.,2,
CCCCn1c(=O)[nH]c(=O)c2c(C(=O)OCC)cc(-c3cccs3)nc21,3%,1,-4.8,.,-1,
NS(=O)(=O)c1cccc(NC(=O)CSc2nc3ccccc3[nH]2)c1,3%,.,-0.7,.,4,
CSc1cccc(NC(=O)Nc2ccccc2)c1,-5%,3,2.3,-59,-2,
Cc1ccc(C)c(NC(=O)c2ccc(OC(=O)c3ccco3)cc2)c1,2%,0,8.8,-10,0,
CC(OC(=O)c1cccnc1Cl)C(=O)Nc1ccc(S(N)(=O)=O)cc1 (stereo not drawn),1%,-2,-0.8,.,-5,
COC(=O)N/N=C/c1ccc(-c2ccc(C)c(Cl)c2)o1,?,-1,2.1,-15,99,
COc1ccc(O)c(C(=O)c2cnc3c(c2)c(-c2ccc(F)cc2)c(C#N)c(=O)n3C)c1,1%,10,0.1,.,59,
C=CCn1c(O)c(N=NC(=O)CNC(=O)/C=C/c2ccc(OC)cc2)c2ccccc21,-2%,.,-1.5,.,21,
CCOc1ccc(NC(=O)CCC(=O)N/N=C/c2ccc3c(c2)OCO3)cc1,?,-1,-0.5,.,36,
Cc1cc(=O)oc2cc(OCC3CC(c4ccc(Br)cc4)=NO3)ccc12 (stereo not drawn),1%,0,.,-12,-7,
CC1CCC(=NNc2ccc(C(F)(F)F)cc2[N+](=O)[O-])CC1 (stereo not drawn),4%,5,1.7,2,4,
CCC(Oc1ccc(C)cc1)C(=O)Nc1ccc(S(=O)(=O)Nc2cc(C)on2)cc1 (stereo not drawn),.,.,-0.5,.,2,
C=CCn1c(C)c(C(C)=O)cc(NC(=O)c2ccccc2)c1=O,7%,3,2.1,.,-3,
CC(=NCc1cccnc1)c1c(O)n(Cc2ccccc2)c(=O)[nH]c1=O,3%,0,-1.6,15,-24,
O=C1c2ccccc2NC(c2cnc3ccccc3n2)N1O (stereo not drawn),-4%,4,-1.3,-49,56,
Cc1ccc(N(C(C)C(=O)NCc2ccncc2)S(C)(=O)=O)cc1C (stereo not drawn),5%,2,-1.7,.,-6,
CC(=O)N1CCc2cc(S(=O)(=O)N3CCCCC3C)ccc21 (stereo not drawn),.,.,-4.0,.,-3,

# Looked up by compound from the list above, 2 records:
SMILES,Mtb H37Rv,Arbovirus anti,RecA splice inh,YopH PTP inh,Mtb bLac sens,others
Cc1ccc(N(C(C)C(=O)NCc2ccncc2)S(C)(=O)=O)cc1C (stereo not drawn),5%,2,-1.7,.,-6,
CCC(Oc1ccc(C)cc1)C(=O)Nc1ccc(S(=O)(=O)Nc2cc(C)on2)cc1 (stereo not drawn),.,.,-0.5,.,2,

# Part of the list above in order of length of the SMILES, largest number first.
SMILES,Mtb H37Rv,Arbovirus anti,RecA splice inh,YopH PTP inh,Mtb bLac sens,others
C=CCn1c(O)c(N=NC(=O)CNC(=O)/C=C/c2ccc(OC)cc2)c2ccccc21,-2%,.,-1.5,.,21,
C=CCn1c(C)c(C(C)=O)cc(NC(=O)c2ccccc2)c1=O,7%,3,2.1,.,-3,
CCOc1ccc(CN2CCN(C(=O)c3ccco3)CC2)cc1,.,.,-2.0,.,-3,
Cn1nccc1NC(=O)NC(=O)c1c(Cl)cccc1Cl,1%,.,0.2,.,-4,

# Later entries
SMILES,Mtb H37Rv,Arbovirus anti,RecA splice inh,YopH PTP inh,Mtb bLac sens,others
O=C1CCC(C(=O)N2CCC(CCO)CC2)CN1Cc1ccc(Cl)cc1 (stereo not drawn),.,.,1.0,.,-2,
COc1ccccc1C1(CCNS(=O)(=O)c2ccc(C)cc2)CCOC(C(C)C)C1 (stereo not drawn),8%,-10,-4.1,-13,-2,
CCN(CC)CCNC(=O)Cn1nc(Cc2cccnc2)c2ccccc2c1=O,-7%,2,-2.2,.,-7,Arbovirus anti repeat=-3
O=C(c1ccccc1)c1c[nH]c(C(=O)NCCCn2ccnc2)c1,-5%,1,-1.6,-35,2,
Cc1cc(OC(=O)c2ccccc2Cl)ccc1N1C(=O)CCC1=O,1%,2,0.5,.,0,
Cc1ccnc(NC(=S)NC(=O)c2cccs2)c1,4%,-5,-0.7,-25,3,
CCN(Cc1ccccc1)C(=O)C1CCN(C(=O)Nc2ccccc2)CC1,.,.,-0.2,.,3,
Cc1cccc(NC(=O)Nc2ccncc2)c1,4%,18,0.2,.,-6,
O=C(Nc1ccccc1C(=O)NC1CCCCC1)c1ccco1,7%,1,1.3,-33,-1,
CC(=O)Nc1cccc2c1C(=O)N(c1ccccc1OC(C)=O)C2=O,7%,11,1.2,.,3,
O=C(c1ccc2c(c1)OCCO2)N1CCN(c2ncc(C(F)(F)F)cc2Cl)CC1,.,.,8.7,.,3,
O=C(O)c1cc([N+](=O)[O-])c(Sc2nc3ccccc3[nH]2)c([N+](=O)[O-])c1,.,.,22,.,9,
COc1ccc(-c2nc3c4ccccc4ccn3c2C=O)cc1,5%,-10,5.6,.,-3,
Cc1ccc(C(=O)OC2CCS(=O)(=O)c3sccc32)cc1 (stereo not drawn),1%,2,3.6,-49,15,
COc1ccc(OC)c(C2C(C(=O)Nc3ccc(F)cc3)=C(C)Nc3nc(CCCO)nn32)c1 (stereo not drawn),-5%,8,.,-15,-4,Arbovirus anti repeat=4
COc1ccccc1/C=C1\SC(=S)N(CCC(=O)NCCCn2ccnc2)C1=O,.,.,2.7,.,5,
COc1cc2ccc(=O)oc2cc1OCC(O)C(C)(C)O (stereo not drawn),-5%,.,-7.3,.,-4,
O=S(=O)(c1ccc(F)cc1)N1CCC(n2cnc3ccccc32)CC1,.,.,2.2,.,0,
COc1ccccc1CN1CCC(CNS(=O)(=O)c2cc(-c3cc(C)no3)ccc2C)CC1,.,.,0.9,.,11,
CC(C)CN(C(=O)c1cccc(F)c1)c1c(N)n(CC(C)C)c(=O)[nH]c1=O,.,.,-4.3,.,-1,
NC(=O)CC(NC(=O)Cc1ccc(Cl)cc1)c1ccc(NCC2CC2)c([N+](=O)[O-])c1 (stereo not drawn),-3%,.,0.1,.,-4,
CCCN1CCN(C(=S)Nc2ccccc2C(F)(F)F)CC1,5%,18,0.4,-24,-5,
Cc1ccc(SCC(=O)NCCC2=CCCCC2)cc1,-1%,-3,2.9,-31,15,
Cc1cc(N2CCN(C)CC2)ccc1NC(=O)c1c2c(nc3ccccc13)CCN(Cc1ccccc1)C2,12%,-30,2.4,.,-7,
CCOC(=O)C1=C(C)NC(=S)NC1c1cccs1 (stereo not drawn),6%,-5,5.0,-22,0,
COCCn1cnnc1SCC(=O)c1ccc(S(=O)(=O)N2CCCC2)cc1,8%,4,0.2,-33,-3,
Cc1nn(Cc2ccccc2)c2c1C(c1ccco1)C(C#N)=C(N)O2 (stereo not drawn),4%,-2,55*,-39,-7,
On1nnc2cc(C(F)(F)F)ccc21,-2%,-4,-0.1,.,5,
CN(CC(=O)Nc1ccccc1Br)Cc1nc2ccccc2c(=O)[nH]1,-16%,-5,0.0,-7,4,
COc1ccc(O)c(/C=N/NC(=S)NCCc2ccccc2)c1,.,.,-155,.,5,
Cc1c(N=Nc2c(O)[nH]c(=S)[nH]c2=O)c(=O)n(-c2ccccc2)n1C,0%,0,3.8,-24,-2,
O=C1CN(C(=O)c2ccc(Br)o2)C(c2ccc(F)cc2)c2cc(Cl)ccc2N1 (stereo not drawn),7%,-15,16,-50,2,
CC1CCc2nc(NC(=O)CN3CCN(c4ccc(F)cc4)CC3)sc2C1 (stereo not drawn),18%,-19,6.7,-23,100,
CC(Nc1nc(-c2cccnc2)nc2ccccc12)c1ccc(F)cc1 (stereo not drawn),.,.,15,.,10,
Cc1ccc(-c2ocnc2C(=O)N2CCN(C(=O)c3cccs3)CC2)cc1,.,.,13,.,10,
CCCCn1c(N)c(N(CCC(C)C)C(=O)C(C)N2C(=O)c3ccccc3C2=O)c(=O)[nH]c1=O (stereo not drawn),.,.,-1.4,.,4,
O=C(NN=C1CCC(=NNC(=O)c2cccnc2)CC1)c1cccnc1,52%,-37,-0.7,.,-2,
CCOC(=O)N/N=C(\C)c1cccs1,1%,14,-0.9,.,6,
Cc1cccc(C(=O)Nc2cccc(C(=O)N3CCOCC3)c2)c1,86%,6,-3.3,-1,0,
CCN(CC)CCNC(=O)CS(=O)Cc1nc(-c2ccc(C)cc2)oc1C (stereo not drawn),-11%,8,-0.4,-12,10,
CCNCC(=O)N1c2ccccc2CCc2ccc(NC(=O)OCC)cc21,.,.,5.3,.,3,
C=CCOC(=O)C1=C(C)Nc2nnnn2C1c1cc(OC)ccc1OC (stereo not drawn),-19%,3,.,-22,-7,
Cc1nnc(NC(=O)C(C)Sc2nnc(CNC(=O)c3ccccc3F)n2C)s1 (stereo not drawn),.,.,1.1,.,-10,
Cc1ccc(S(=O)(=O)NNC(=S)NC(C)(C)C)cc1,-16%,.,-3.5,.,-8,
Cc1ccc(/C=C/C(=O)c2ccc([N+](=O)[O-])o2)cc1,.,.,-9.1,.,100,
Cc1ccc(C(=O)N2CCC(n3nccc3NC(=O)C3CCOC3)CC2)cc1 (stereo not drawn),.,.,0.3,.,-11,
CCC(C)C(NC(=O)CCCNC(=O)CCC(=O)OC1O[C@H]2OC3(C)CC[C@H]4[C@H](C)CCC(C1C)C24OO3)C(=O)O (stereo partly drawn),.,.,1.0,.,4,
CC(=O)C1=C(O)CCC1=NCCc1ccccc1,-2%,-4,-4.1,-5,3,
O=C(Nc1ccc(NC(=O)C2CCCCC2)nc1)c1ccco1,1%,1,1.0,-5,10,
CN(Cc1ccccc1)Cc1ccccc1F,-5%,2,0.0,-29,-1,
CSc1ncccc1C(=O)Nc1nnc(C2CC2)s1,1%,1,-2.0,.,-7,
CCCC(=O)Nc1cc(C)c(NC(=O)c2ccncc2)cn1,2%,1,1.7,-3,-6,

# High-throughput results deposited in PubChem BioAssay by several laboratories.
